Screening data as filed in PubChem.
GRK2 aptamer HTS = blocks RNA aptamer binding to human GRK2; P25098; bead flow cytometry, FAM-aptamer displacement from GRK2; 330,000 tested, 0.59% active; AID 488847; inhibition of aptamer binding, % at 10 µM;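 active = inhibition of aptamer binding above 40%, roughly 3 SD of noise, on plates passing a quality check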;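 note: median bead fluorescence of bound FAM aptamer so fluorescent compounds give negative values; no value below 0 was filed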
Target sequence (P25098 whole entry, looked up): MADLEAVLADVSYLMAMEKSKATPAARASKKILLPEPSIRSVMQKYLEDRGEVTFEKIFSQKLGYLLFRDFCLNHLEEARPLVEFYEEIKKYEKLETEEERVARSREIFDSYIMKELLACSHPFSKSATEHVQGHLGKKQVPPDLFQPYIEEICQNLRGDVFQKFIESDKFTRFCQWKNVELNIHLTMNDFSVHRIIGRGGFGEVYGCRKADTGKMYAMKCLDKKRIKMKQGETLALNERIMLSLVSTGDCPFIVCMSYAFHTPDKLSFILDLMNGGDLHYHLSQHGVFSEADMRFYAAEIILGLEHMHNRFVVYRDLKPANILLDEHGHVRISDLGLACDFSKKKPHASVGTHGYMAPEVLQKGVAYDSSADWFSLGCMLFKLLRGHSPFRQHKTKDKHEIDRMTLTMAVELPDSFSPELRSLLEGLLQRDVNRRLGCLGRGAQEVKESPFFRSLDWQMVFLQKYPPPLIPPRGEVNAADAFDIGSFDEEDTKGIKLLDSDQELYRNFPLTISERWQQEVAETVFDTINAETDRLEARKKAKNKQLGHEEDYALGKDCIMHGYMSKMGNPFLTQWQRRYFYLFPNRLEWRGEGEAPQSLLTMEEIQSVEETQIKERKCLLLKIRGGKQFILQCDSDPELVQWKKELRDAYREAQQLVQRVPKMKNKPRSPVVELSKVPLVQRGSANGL
GLD-1 TGE inh = GLD-1-TGE RNA interaction inhibition (C. elegans); purified GLD-1 + fluorescein TGE RNA, fluorescence polarization; inhibition, % at 5.96 µM; 320,000 tested, 0.44% active; AID 2280;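 active = percent inhibition above a per-plate cutoff, the plate mean of test compounds plus 3 SD, cut at about 30% in these data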;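 note: 0% = DMSO wells with GLD-1 and probe and 100% = wells lacking GLD-1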
PME-1 primary = PME-1 (human) inhibition; AID 2130; 320,000 tested, 0.53% active; Q9Y570; inhibition, % at 5.9 µM; recombinant PME-1, FP-Rh probe fluorescence polarization;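 active = inhibition above the campaign mean of all compounds plus 3 SD, cut at about 26% in these data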;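 note: competitive labeling of PME-1 active site by serine hydrolase directed probe; 0% = PME-1 with DMSO and 100% = wells lacking PME-1 enzyme; inhibitors block probe labeling so polarization falls and inhibition rises; many of its hits are not listed in these tables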
Target sequence (Q9Y570 whole entry, looked up): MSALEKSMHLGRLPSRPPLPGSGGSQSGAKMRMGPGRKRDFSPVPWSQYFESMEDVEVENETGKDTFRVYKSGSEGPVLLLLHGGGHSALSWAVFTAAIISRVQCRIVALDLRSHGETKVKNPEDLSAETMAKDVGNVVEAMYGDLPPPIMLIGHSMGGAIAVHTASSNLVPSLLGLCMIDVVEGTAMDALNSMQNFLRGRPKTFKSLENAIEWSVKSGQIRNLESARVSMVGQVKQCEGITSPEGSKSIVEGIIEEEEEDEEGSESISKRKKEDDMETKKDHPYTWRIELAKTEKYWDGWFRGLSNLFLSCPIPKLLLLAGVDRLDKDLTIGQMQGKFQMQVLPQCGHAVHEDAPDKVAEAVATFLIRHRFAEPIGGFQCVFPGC
VLA-4 inh = inhibition in a human VLA-4 binding assay | inhibition, % (about 7 µM as worked out from the volumes in the protocol) | VLA-4 expressing cells, ligand binding flow cytometry | P13612 | 330,000 tested, 0.2% active | AID 2557; in the data active = inhibition above about 50%
MEX-5 binding = C. elegans MEX-5 TCR-2 RNA binding activity. activity score (negative = inhibition of binding), % at 10 µM. 300,000 tested, 0.38% active. Q9XUB2. MEX-5/FITC-TCR2 RNA binding, fluorescence polarization; active compounds read low;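 active = inhibition past about -25% in most replicates, and total fluorescence under double the plate's negative control median, limit read from the data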;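 note: 0% = DMSO and -100% = 5 µM competing unlabeled TCR2 RNA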
Efflux pump inh = antifungal efflux pump inhibition, Nile Red retention; inhibition, % at 10 µM; AID 485275; 330,000 tested, 0.44% active; S. cerevisiae Candida pump triplex;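 active = plate passing quality check with inhibition over a set limit, or well fluorescence over plate mean plus 4 SD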;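 note: Nile Red retained in pooled yeast measured as flow cytometry median fluorescence; 0% = buffer negative control and 100% = Enniatin B positive control; higher means more Nile Red kept so more efflux inhibition; some compounds called inactive have numbers as strong as hits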
Fam108B inh = counter-screen for RBBP9 inhibitors: inhibitors of mouse Fam108B; recombinant Fam108B, FP-Rh probe fluorescence polarization; inhibition, % at 9.51 µM; 300,000 tested, 0.33% active; AID 1947;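 active = inhibition above the screen mean inhibition plus 3 SD, computed separately per campaign, cut at about 18% in these data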;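 note: inhibitors lower polarization as less probe binds the enzyme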
Active calls of the source: *; i = inactive; . = not tested or not shown.

Below each SMILES – GRK2 aptamer HTS | GLD-1 TGE inh | PME-1 primary | VLA-4 inh | MEX-5 binding | Efflux pump inh | Fam108B inh
- CCN1C(=O)C(CC(=O)Nc2ccc(OC)cc2)N(Cc2ccco2)C1=S (stereo not drawn)
    2 | 5 | 2 | 6 | 0.6 | -0.1 | -1
- O=C1OC(c2ccc(Br)cc2)=N/C1=C\c1ccco1
    3 | 4 | 2 | 6 | -1.4 | 0.0 | 6
- Cn1c(=O)c2[nH]cnc2n(C)c1=O
    0 | 0 | 3 | 32 | -1.9 | -0.1 | -1
- O=C(Nc1ccc(Cl)cc1)Nc1nnc(-c2ccncc2)s1
    5 | -2 | -101 | 18 | -1.1 | -0.1 | 0
- Cc1cc(C(F)F)n2ncc(C(=O)NCc3ccccc3C(F)(F)F)c2n1
    1 | 3 | 0 | -7 | -0.5 | -0.2 | -2
- COc1ccc(/C=C2\N=C(C)N(c3ccc(C(=O)O)cc3)C2=O)cc1OC
    5 | -5 | -3 | -24 | 3.9 | -0.1 | -3
- COc1ccc(OC)c(-n2c(O)cnc2Nc2nc(C)cc(C)n2)c1
    3 | 7 | -4 | 7 | 0.9 | 0.0 | -7
- Cn1c(NCCCN2CCOCC2)nc2c1c(=O)n(Cc1ccc(Cl)c(Cl)c1)c(=O)n2C
    0 | 6 | 4 | -12 | -0.7 | -0.3 | 15
- COc1cc(/C=C2\SC(=N)N(c3ccc4c(c3)OCO4)C2=O)cc(OC)c1O
    4 | -54 | -17 | -250 | -1.2 | 0.2 | -7
- O=C(COC(=O)/C=C/c1ccc(Br)o1)Nc1ccc2[nH]c(=O)[nH]c2c1
    30 | 8 | 7 | -26 | 4.2 | 0.6 | 7
- CNc1nc(N/N=C/c2ccc([N+](=O)[O-])cc2)nc(Nc2ccccc2)n1
    2 | -2 | 11 | 21 | -0.1 | -0.2 | 6
- Cc1cc(C)nc(Nc2ncc(O)n2-c2ccc(Br)cc2)n1
    0 | 0 | -3 | 18 | 0.8 | 0.1 | 1
- CCN(CC)CCNC(=O)c1nn(-c2ccc(C)cc2)c(=O)c2c1c1ccccc1n2C
    0 | -1 | -4 | 4 | -3.6 | 0.1 | 5
- O=S(=O)(Cc1ccccc1)N1CCn2c(nc3ccccc32)C1
    1 | -2 | 7 | -17 | 1.9 | -0.2 | 0
- Nc1cccc(-c2nc3cc(S(=O)(=O)c4ccc5oc(-c6cccc(N)c6)nc5c4)ccc3o2)c1
    0 | 7 | 10 | -7 | -0.2 | 0.1 | 3
- COc1ccccc1CCNC(=O)c1cnn2c(C(F)F)cc(C)nc12
    2 | 6 | -7 | -24 | 0.3 | -0.1 | 4
- COc1cccc(OCCc2c(C)n[nH]c2C)c1
    1 | 0 | 1 | 2 | . | -0.3 | 2
- CCCCn1nnnc1NCc1cc(Cl)c(OC)c(OC)c1
    2 | -3 | -10 | -2 | -2.8 | 0.1 | 1
- COc1ccc(NC(=S)Nc2cccc(C(F)(F)F)c2)c(C)c1
    2 | -7 | 0 | 20 | -4.5 | -0.2 | 0
- C=CCn1c(CCNC(=O)c2ccccc2F)nnc1SCc1nc2ccccc2c(=O)[nH]1
    2 | -3 | 4 | -4 | 0.6 | 0.1 | 4
- CCOCC(=O)Nc1cc(C(=O)Nc2ccc(F)cc2)ccc1Cl
    0 | -1 | -5 | 16 | 0.4 | -0.1 | 0
- Cc1nn(-c2ccccc2)c(N)c1C1(O)C(=O)Nc2ccccc21 (stereo not drawn)
    0 | 9 | -2 | 2 | 0.1 | 0.1 | 4
- CC(C)CNC(=O)C1CCN(c2ccc(S(=O)(=O)N3CCOCC3)cc2Cl)CC1
    0 | 3 | 1 | 23 | -1.2 | 0.0 | 2
- CCOc1ccc2nc(Nc3nc4ccc(NC(C)=O)cc4s3)sc2c1
    0 | 3 | 51* | 10 | 1.8 | -0.4 | 11
- O=C(OCc1ccco1)c1cccnc1
    11 | 1 | -5 | i | -2.5 | 0.0 | 0
- Nc1ncnc(Nc2ccc(F)c(Cl)c2)n1
    0 | -1 | 4 | 4 | 2.1 | 0.4 | -1
- CCCN1C(=O)c2cc(C(=O)O)ccc2C1O (stereo not drawn)
    2 | -3 | -8 | -10 | -0.1 | 0.0 | 10
- COc1ccc(/C=N/Nc2nc(-c3ccc(Cl)cc3)cc(C(F)(F)F)n2)cc1OC
    16 | 7 | 13 | 3 | -0.4 | -0.2 | -1
- N#C/C(=C\c1ccc(-c2ccccc2[N+](=O)[O-])o1)C(=O)Nc1nc(-c2cccs2)cs1
    56* | 5 | 29* | 5 | 0.4 | 0.1 | 6
- CCCc1nc(-c2cc3cc(C)ccc3[nH]c2=O)no1
    2 | 3 | 4 | 4 | -2.6 | 0.1 | -6

Entries of single compounds, quoted from the list:
COc1ccc(NC(=S)Nc2cccc(C(F)(F)F)c2)c(C)c1 across the screens: GRK2 aptamer HTS = 2; GLD-1 TGE inh = -7; PME-1 primary = 0; VLA-4 inh = 20; MEX-5 binding = -4.5; Efflux pump inh = -0.2; Fam108B inh = 0
COc1ccc(/C=N/Nc2nc(-c3ccc(Cl)cc3)cc(C(F)(F)F)n2)cc1OC across the screens: GRK2 aptamer HTS = 16; GLD-1 TGE inh = 7; PME-1 primary = 13; VLA-4 inh = 3; MEX-5 binding = -0.4; Efflux pump inh = -0.2; Fam108B inh = -1

(more compounds)
Below each SMILES – GRK2 aptamer HTS | GLD-1 TGE inh | PME-1 primary | VLA-4 inh | MEX-5 binding | Efflux pump inh | Fam108B inh
- CCOC(=O)c1cc(C#N)c(N2CCN(C)CC2)nc1-c1ccccc1
    0 | 3 | 0 | -3 | -0.2 | 0.1 | 0
- CCN(CC)c1ccc(C(=O)OCc2cc(=O)oc3cc(O)ccc23)cc1
    8 | 2 | 10 | -1 | 1.1 | 0.1 | -2
- CNCC(=O)O
    4 | 6 | 5 | 8 | . | -0.3 | 0
- COC(=O)Oc1ccc(/C=N/NC(=O)CSCc2ccccc2Br)cc1OC
    0 | 4 | 9 | 4 | 0.0 | -0.4 | -1
- Cc1ccc(N2C(=O)CN=C2Nc2nc(C)cc(C)n2)cc1
    0 | 0 | 2 | -2 | -0.5 | 0.0 | -2
- CCCCN(CC)CCNC(=O)c1nn(-c2ccc(OC)cc2)c(=O)c2c1c1ccccc1n2C
    0 | 2 | 2 | -2 | 1.1 | -0.2 | 4
- COc1ccc2[nH]c(C)c(C(=O)CN3CCN(C/C=C/c4ccccc4)CC3)c2c1
    4 | 3 | 2 | 3 | -3.3 | -0.2 | 0
- COc1ccc(/C=c2\sc3nc(-c4ccccc4OC)nn3c2=O)c(OC)c1
    0 | 4 | -2 | 32 | -33* | 0.8 | -3
- COc1ccc(C(C#N)Nc2ccccc2)cc1 (stereo not drawn)
    0 | -4 | 1 | 1 | 1.0 | -0.1 | -3
- Fc1ccccc1Cn1nnc2c(NCc3ccccn3)ncnc21
    7 | -2 | 6 | -27 | 1.1 | 0.1 | -3
- COc1c(N2CCN[C@H](C)C2)c(F)cc2c(=O)c(C(=O)O)cn(C3CC3)c12
    1 | 6 | 0 | 7 | -0.1 | 0.0 | 2
- Cc1nn(C)c(C)c1NC(=O)CSc1nc(-c2ccccc2Cl)nc2c1cnn2-c1ccccc1
    0 | -5 | -2 | -7 | 2.4 | -0.3 | -2
- Cn1c(SCC(=O)c2ccc3c(c2)Cc2ccccc2-3)nnc1-c1ccccc1
    0 | -2 | -5 | 16 | 1.0 | 0.4 | -4
- CCc1cc2c(N[C@@H](C)C(=O)O)ncnc2s1
    0 | 4 | -6 | 1 | 0.0 | -0.2 | 4
- CN(C)c1oc(-c2ccccc2)nc1C#N
    4 | 1 | -3 | 14 | -0.1 | 0.1 | -2
- COc1ccc(NC(C)=O)cc1NC(C)C(=O)Nc1ccc(F)cc1 (stereo not drawn)
    1 | 6 | -7 | -1 | 0.6 | 0.2 | -2
- CC(=O)c1cccc([N+](=O)[O-])c1
    3 | 4 | -6 | 5 | . | -0.1 | .
- Cc1sc2nc(CN3CCCC3)nc(N3CCN(C(=O)c4ccco4)CC3)c2c1C
    0 | -3 | 2 | -1 | 1.8 | -0.1 | -2
- O=C(Nc1cccc(-c2nc3ccccc3s2)c1)c1cc(=O)c2ccccc2o1
    3 | 4 | -3 | -16 | -4.4 | -0.1 | -7
- CCCCc1ccc(NC(=O)N[C@@H](C)C(=O)O)cc1
    0 | 0 | 1 | 10 | -0.5 | -0.1 | -2
- COc1ccc(/C=C2\SC(=O)N(CCC(=O)Nc3ccccc3)C2=O)cc1OC
    0 | 9 | -3 | 7 | -3.6 | 7.6* | -2
- COC(=O)Cn1c2ccc(OC)cc2c2nc3ccccc3nc21
    0 | 4 | 0 | -1 | -16 | 0.0 | -2
- Cc1ccc(NC2=C(Cl)C(=O)OC2OC(C)C)cc1 (stereo not drawn)
    47* | 10 | 5 | 5 | -1.0 | 0.0 | 3
- CS(=O)(=O)N1CCc2cc(C(=O)OCC(=O)c3ccccc3)ccc21
    2 | 2 | 8 | 6 | 2.6 | 0.0 | -3
- COc1ccc(NC(C)=O)cc1NC(C)C(=O)Nc1cccc2ccccc12 (stereo not drawn)
    1 | -6 | 0 | 6 | 0.3 | 0.0 | 2
- Cn1c(C(=O)NCCC2=CCCCC2)cc2c(=O)n3ccccc3nc21
    1 | -5 | -2 | -7 | 1.0 | 0.1 | 0
- CCOC(=O)c1cc2sc(C)cc2n1CC(=O)N1CCN(C(=O)c2ccco2)CC1
    0 | 13 | 8 | 4 | 2.8 | 0.1 | 1
- O=c1cc(-c2ccccc2)oc2ccccc12
    0 | 0 | 2 | 13 | . | 0.0 | -2
- CC1=C(CC(=O)O)c2cc(F)ccc2C1=Cc1ccc(S(C)(=O)=O)cc1
    3 | 5 | 2 | -5 | . | 0.2 | 3
- COC(=O)NNC(=O)c1ccc(C)cc1
    3 | -1 | 2 | 33 | -0.8 | 0.1 | 3
- CC(=O)c1cc(C#N)c(N2CCCCC2)nc1C
    1 | 0 | -5 | 4 | -0.4 | 0.0 | 0
- COc1ccc(NC(C)=O)cc1NC(C)C(=O)Nc1ccccc1F (stereo not drawn)
    2 | 1 | -3 | 38 | -0.5 | 0.0 | 2
- COc1ccc(NC(=O)CC2C(=O)N(Cc3ccco3)C(=S)N2C(C)C)cc1 (stereo not drawn)
    0 | -2 | 0 | -18 | -1.7 | -0.1 | -3
- C[C@H]1O[C@H](O[C@H]2[C@H](O)[C@@H](O)[C@@H](O[C@H]3[C@H](O)[C@@H](O)C(O)O[C@@H]3CO)O[C@@H]2CO)[C@H](O)[C@@H](O)[C@@H]1N[C@H]1C=C(CO)[C@@H](O)[C@H](O)[C@H]1O (stereo partly drawn)
    3 | 6 | 0 | 30 | -2.9 | 0.1 | -4
- COc1cc(/C=N/NC(N)=S)ccc1OCC(=O)N1CCOCC1
    2 | 10 | 0 | 6 | -0.3 | 0.3 | 0
- CC(C)(C)NC[C@H](O)COc1cccc2c1CCCC2=O
    6 | 4 | -1 | 4 | . | 0.2 | -3
- COc1ccc(/C(C)=N\Nc2nc(-c3ccc(Cl)cc3)cc(C(F)(F)F)n2)cc1OC
    4 | 2 | 1 | -14 | 1.4 | -0.1 | 0
- C=C1C[C@H]2[C@@H]3C=C(C)C4=CC(=O)CC[C@]4(C)[C@H]3CC[C@]2(C)[C@@]1(OC(C)=O)C(C)=O
    2 | -1 | 5 | -8 | 1.9 | -0.1 | -2
- CCOc1ccc(N/C(SCc2cccc([N+](=O)[O-])c2)=C(/C#N)C(N)=O)cc1
    0 | 5 | 6 | 23 | 0.2 | -0.3 | 2
- CC1CC(C)CN(C(=O)CSc2nc(Cc3cccs3)nc3ccccc23)C1 (stereo not drawn)
    1 | -3 | 9 | 13 | 0.6 | 0.0 | -4
- O=C1CN(CC(=O)Nc2cccc(Cl)c2Cl)c2ccccc2N1
    0 | -52 | 0 | -129 | 4.8 | 0.2 | -3
- CCOC(=O)N1CCN(C(=S)NC(=O)C2CCCC2)CC1
    4 | -1 | 2 | 10 | 0.7 | 0.0 | 2
- CC(C)COc1ccc(-c2nnc(-c3ccncc3)o2)cc1
    0 | 0 | -31 | 28 | -1.6 | 0.0 | -1

These rows are one share of the data. The share of hits here may be higher or lower than overall.
